Assay outcomes as filed in PubChem.
BJeLR viab HTS = lowers viability of BJeLR cells | BJeLR fibroblasts viability, CellTiterGlo ATP luminescence, 48 h; HRASV12, hTERT and SV40 LT/ST transformed | viability loss activity score, % (concentration not given with the values) | 30,000 tested, 0.64% active; in the data active = viability loss activity score above about 50%; about a fifth of its hits are not listed in these tables;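 also: higher score means fewer live cells and less ATP luminescence; stock transfer was 50 or 100 nL into about 30 µL; 0% = vehicle wells and 100% = a reference killing control; one replicate is shown; the record names a cut of 85%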
A1 inh = inhibitors of A1; 21,000 tested, 0.51% active; caspase activation, % (test concentration not listed); AID 2241; MEF A1-2A-BIM cells, caspase-Glo luminescence, 3 h; percent of clofoctol signal, DMSO as zero;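 active = most replicate scores above 10, or exactly half above 10 with mean activity above 10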;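 also: effector caspase 3 and 7 activity cleaving a DEVD luciferin substrate; 50 nL library stock added to about 30 µL; numbers are from one replicate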
Active calls of the source: *; / = not tested or not shown. The list is partial. The share of hits here may be higher or lower than overall.

The line under a structure holds: BJeLR viab HTS | A1 inh
1) C[C@@H]1CN([C@H](C)CO)C(=O)c2cc(NS(=O)(=O)c3ccccc3)ccc2O[C@H]1CN(C)C(=O)Nc1ccc(C(F)(F)F)cc1
  1.8 | 0.2
2) CCOC(=O)Cn1c(=O)c(C(N)=S)cn(C(C)C)c1=O
  -4.6 | 0.2
3) COC(=O)c1ccc(C(=O)NN)cc1
  0.9 | 0.1
4) COC(=O)c1cccc(NC(=O)C2=NNC(=O)CC2)c1
  2.9 | 0.0
5) Cc1ccc(S(=O)(=O)Nc2ccc3c(c2)C(=O)N([C@@H](C)CO)C[C@H](C)[C@H](CN(C)C(=O)Nc2ccc(F)cc2)O3)cc1
  0.5 | 0.4
6) CS(=O)(=NC(=O)Nc1ccccc1)c1ccccc1 (stereo not given)
  -2.5 | -0.1
7) C[C@@H]1CN([C@H](C)CO)C(=O)c2cccc(NS(=O)(=O)c3ccc(F)cc3)c2O[C@@H]1CN(C)S(=O)(=O)c1ccc(F)cc1
  1.7 | /
8) Cc1ccc2oc(=O)c3cnn(CC(=O)n4c(C)cc5ccccc54)c3c2c1
  8.8 | /
9) CC1CCN(C(=O)c2ccc3nc(SCc4ccc(F)cc4)n(C)c3c2)CC1
  -0.3 | -0.5
10) CCCOc1c(-c2ccc3ccccc3n2)cnc2ccccc12
  3.8 | -0.4
11) O=C(NCc1ccccc1)c1ccc(CN2CCC(Cc3ccccc3)CC2)cc1
  14 | -0.5
12) CCc1cccc(NC(=O)CCCN2C(=O)COc3ccc(C)cc32)c1
  -3.7 | 0.0
13) O=C(Nc1ccc(F)cc1)c1cnccc1C(F)(F)F
  -2.4 | 1.0
14) C[C@@H]1CN([C@H](C)CO)C(=O)c2cc(NS(=O)(=O)c3ccc(Cl)cc3)ccc2O[C@@H]1CN(C)Cc1ccncc1
  -1.7 | 0.0
15) C[C@@H]1CN([C@@H](C)CO)C(=O)c2cc(N(C)C)ccc2O[C@@H]1CN(C)Cc1ccc2c(c1)OCO2
  -1.7 | -0.5

Copied from the list:
cpd 9 in A1 inh has -0.5
cpd 3 in BJeLR viab HTS has 0.9
cpd 4 in A1 inh has 0.0
cpd 7 in BJeLR viab HTS has 1.7
cpd 1 in BJeLR viab HTS has 1.8

Other records
The line under a structure holds: BJeLR viab HTS | A1 inh
16) COc1ccc(CN(C)C[C@H]2Oc3ccc(NS(=O)(=O)c4cn(C)cn4)cc3C(=O)N([C@H](C)CO)C[C@H]2C)cc1
  -1.3 | 1.6
17) CC(C)(C)C(=O)CC(Nc1ccccc1)c1ccc(Cl)cc1 (stereo not given)
  2.7 | 0.7
18) C[C@H]1CN([C@@H](C)CO)C(=O)c2cc(NC(=O)Nc3ccccc3)ccc2O[C@H]1CN(C)S(=O)(=O)c1ccc(F)cc1
  -3.5 | -0.5
19) Cc1cc(NC(=O)c2ccc3nonc3c2)on1
  6.0 | -4.9
20) FC(F)(F)Oc1ccc(-c2nnc(-c3cccnc3)o2)cc1
  -1.5 | -2.7
21) CCC(C)NC(=O)c1cc(-c2ccccn2)nc2ccccc12 (stereo not given)
  0.8 | 0.8
22) O=C(O)c1cc2cccc(S(=O)(=O)N3CCCCCC3)c2cc1O
  -0.3 | -0.6
23) C[C@@H]1CN([C@H](C)CO)C(=O)c2cccc(NC(=O)Nc3ccc(C(F)(F)F)cc3)c2O[C@@H]1CN(C)CC1CCCCC1
  -4.7 | /
24) CC1C(=O)C(C)C(c2ccc(N(C)C)cc2)NC1c1ccc(N(C)C)cc1 (stereo not given)
  1.9 | /
25) Cc1ccc(Cc2cc(C)n[nH]c2=O)cc1
  -1.1 | 1.9
26) Cn1ccc(/C=C2/CCC/C(=C\c3ccn(C)n3)C2=O)n1
  -2.2 | 2.1
27) Cc1noc(C)c1NC(=O)Nc1ccc2c(c1)C(=O)N([C@@H](C)CO)C[C@H](C)[C@H](CN(C)C(=O)Nc1cccc3ccccc13)O2
  2.0 | -0.1
28) CS(=O)(=NS(=O)(=O)c1ccc(OC(F)(F)F)cc1)c1ccc(Cl)cc1 (stereo not given)
  0.6 | -0.3
29) COc1ccc(S(=O)(=O)Nc2cccc3c2O[C@H](CN(C)C(=O)Nc2c(C)noc2C)[C@@H](C)CN([C@H](C)CO)C3=O)cc1
  4.9 | /
30) C[C@H]1CN([C@@H](C)CO)C(=O)c2cc(NC(=O)Nc3cccc4ccccc34)ccc2O[C@H]1CN(C)CC1CCCCC1
  -0.5 | 0.6

(more compounds)
The line under a structure holds: BJeLR viab HTS | A1 inh
31) Cc1onc(-c2ccccc2)c1CNC(=O)Nc1ccccc1
  1.6 | -0.2
32) C[C@@H]1CN([C@@H](C)CO)C(=O)c2cc(NS(C)(=O)=O)ccc2O[C@H]1CN(C)C(=O)Nc1ccccc1
  0.0 | 0.4
33) CCOc1ccc(C2C3=C(CCCC3=O)Nc3ncnn32)cc1 (stereo not given)
  -1.7 | 0.5
34) COc1ccc(-c2nc3c(c(SCC(N)=O)n2)Cc2ccccc2O3)cc1
  -1.5 | -0.3
35) CC1OC(c2cc3oc(-c4ccccc4)cc(=O)c3c(O)c2O)CC(O)C1O (stereo not given)
  -2.7 | -0.6
36) Cn1c(=O)c2[nH]c(-c3ccc(Cl)cc3)c(O)c2n(C)c1=O
  1.5 | 0.4
37) CC(C)(C)c1cc(C(=O)NN)no1
  -2.9 | 1.0
38) CS(=O)(=NS(=O)(=O)c1ccccc1C(F)(F)F)c1ccc(Cl)cc1 (stereo not given)
  -2.7 | 1.2
39) CC1(C)CN=C(NC2CCCCC2)S1
  -1.1 | 0.3
40) COC(=O)c1cccc(C(=O)Nc2cnc3ccccc3c2)n1
  0.7 | -5.2
41) CS(=O)(=O)NCCc1ccccc1
  -0.5 | /
42) C[C@H]1CN([C@@H](C)CO)C(=O)c2cccc(NC(=O)c3cnccn3)c2O[C@H]1CN(C)C
  -0.3 | /
43) CCc1cccc(NC(=O)c2sc(-n3cccc3)nc2C)c1
  -0.2 | -0.3
44) COc1ccc(NC(=S)N(Cc2ccccc2)Cc2cccn2Cc2ccc(C)cc2C)cc1OC
  6.6 | 0.8
45) CCC1CCCCN1C(=O)Cn1c(=O)n(Cc2ccccc2Cl)c(=O)c2cc(OC)c(OC)cc21 (stereo not given)
  1.3 | /

Going on with the list.
The line under a structure holds: BJeLR viab HTS | A1 inh
46) CCOC(=O)N1CCC(NC(=O)C2CCCN(c3ncnc4c3sc3cccc(F)c34)C2)CC1 (stereo not given)
  0.0 | -0.6
47) C[C@H]1CN([C@@H](C)CO)C(=O)c2cc(N(C)C)ccc2O[C@@H]1CN(C)S(=O)(=O)c1ccc(Cl)cc1
  0.0 | -0.5
48) CCCC(=O)Nc1cccc(N)c1
  1.9 | 0.2
49) C[C@H](CO)N1C[C@H](C)[C@@H](CN(C)S(=O)(=O)c2ccccc2)Oc2ccc(NS(=O)(=O)c3cccs3)cc2C1=O
  -2.6 | -0.6
50) COc1ccc(NC(=O)N(C)C[C@@H]2Oc3c(NS(=O)(=O)c4ccc(F)cc4)cccc3C(=O)N([C@@H](C)CO)C[C@@H]2C)cc1
  -1.9 | /
51) CNC(=O)CN(Cc1ccccc1)S(=O)(=O)c1ccc(Cl)cc1
  3.6 | 0.8
52) Cc1cc(-c2cccs2)c2c(N)c(C(=O)c3ccccc3)sc2n1
  -7.8 | 1.1
53) CC(C)NC(=O)Nc1ccc2c(c1)C(=O)N([C@@H](C)CO)C[C@@H](C)[C@@H](CN(C)Cc1ccc(-c3ccccc3)cc1)O2
  11 | 0.2
54) C[C@@H]1CN([C@H](C)CO)C(=O)c2cccc(NC(=O)c3cnccn3)c2O[C@@H]1CN(C)Cc1ccccc1
  -2.9 | /
55) Cc1cccc(Cl)c1NC(=O)N1CCCN(c2ncccc2C(F)(F)F)CC1
  -3.1 | /
56) O=C(Nc1ccc(Cc2ccncc2)cc1)c1cc2ccccn2n1
  12 | /
57) CCCCn1c(-c2ccc(Br)cc2)nc2ccccc21
  -1.1 | 0.0
58) Cc1ccc(Cl)cc1N1CCN(CCCNc2nc3ccccc3n3c(C)nnc23)CC1
  3.7 | -0.7
59) Cc1ccc(S(=O)(=O)N(C)C[C@@H]2Oc3ccc(NC(=O)Nc4cccc5ccccc45)cc3C(=O)N([C@H](C)CO)C[C@@H]2C)cc1
  -2.6 | -0.4
60) CN(C)CCN(C(=O)c1ccco1)c1nc2cc3c(cc2s1)OCO3
  3.5 | 1.2

Remaining list, next part
The line under a structure holds: BJeLR viab HTS | A1 inh
61) COc1ccc(CN(C)C[C@@H]2Oc3c(NS(=O)(=O)c4cccs4)cccc3C(=O)N([C@H](C)CO)C[C@@H]2C)cc1
  5.3 | /
62) CS(=O)(=O)Nc1ccc(Cl)cc1C(=O)c1ccccc1
  3.7 | 0.5
63) C[C@H](CO)N1C[C@H](C)[C@H](CN(C)C(=O)Nc2ccc3c(c2)OCO3)Oc2c(NC(=O)c3ccncc3)cccc2C1=O
  -2.6 | /
64) Cc1cc(O)c(C=O)c(O)c1C(=O)O
  6.2 | -1.1
65) Cc1noc(C)c1NC(=O)Nc1cccc2c1O[C@H](CN(C)S(=O)(=O)c1cn(C)cn1)[C@H](C)CN([C@@H](C)CO)C2=O
  -0.6 | /
66) Cc1ccc(S(=O)(=O)N(C)C[C@@H]2Oc3c(NC(=O)Nc4c(C)noc4C)cccc3C(=O)N([C@@H](C)CO)C[C@@H]2C)cc1
  4.4 | /
67) CCOC(=O)c1ccc(N=Cc2c(O)[nH]c(=O)[nH]c2=O)cc1
  3.0 | 0.6
68) COc1ccc(NC(=O)N(C)C[C@H]2Oc3ccc(N(C)C)cc3C(=O)N([C@H](C)CO)C[C@@H]2C)cc1
  -0.3 | 1.8
69) CC(=O)NCCc1ccc(S(=O)(=O)N(C)C)cc1
  7.8 | /
70) C[C@H](CO)N1C[C@H](C)[C@@H](CN(C)Cc2ccc(-c3ccccc3)cc2)Oc2ccc(NC(=O)C3CCCCC3)cc2C1=O
  2.5 | 1.0
71) C[C@@H]1CN([C@@H](C)CO)C(=O)c2cccc(NC(=O)Nc3ccc(F)cc3)c2O[C@@H]1CN(C)S(=O)(=O)c1ccc(Cl)cc1
  1.7 | /
72) COc1ccc(Cc2nnc(SCC(=O)NC(C)C)n2-c2ccc(F)cc2)cc1OC
  2.5 | 0.6
73) Cc1ccc(Nc2nc(SCc3ccccc3)nnc2C)cc1
  6.8 | 0.0
74) COc1cc(OC)c2c(=O)cc(-c3ccccc3)oc2c1
  -0.9 | -4.8
75) Cc1noc(C)c1S(=O)(=O)Nc1ccc2c(c1)C(=O)N([C@H](C)CO)C[C@H](C)[C@@H](CN(C)Cc1ccc(Cl)c(Cl)c1)O2
  -1.8 | -1.1

The list goes on:
The line under a structure holds: BJeLR viab HTS | A1 inh
76) CNC(=S)N1N=C2c3ccccc3CCC2C1c1ccc(OC)cc1 (stereo not given)
  1.4 | -0.2
77) COc1ccc(C(=O)N2CCN(c3ncnc4cc(-c5ccccc5)sc34)CC2)cc1OC
  -4.5 | /
78) Cc1ccc(S(=O)(=O)N(C)C[C@@H]2Oc3c(NC(=O)c4ccc(-c5nccs5)cc4)cccc3C(=O)N([C@@H](C)CO)C[C@H]2C)cc1
  12 | /
79) CC(C)NC(=O)Nc1ccc2c(c1)C(=O)N([C@@H](C)CO)C[C@H](C)[C@H](CN(C)Cc1ccc(Oc3ccccc3)cc1)O2
  -0.1 | 1.1
80) O=C(c1ccc(Cl)cc1)N1CCCc2ccccc21
  -0.7 | 0.1
81) C[C@@H]1CN([C@H](C)CO)C(=O)c2cccc(NS(C)(=O)=O)c2O[C@@H]1CN(C)C(=O)Nc1ccc2c(c1)OCO2
  3.1 | /
82) FC(F)(F)C1(C(F)(F)F)N=C(c2ccccc2)NC(c2ccccc2)=N1
  0.5 | 0.2
83) C[C@@H]1CN([C@@H](C)CO)C(=O)c2cccc(NC(=O)Nc3ccc4c(c3)OCO4)c2O[C@@H]1CN(C)S(=O)(=O)c1ccc(Cl)cc1
  -0.1 | /
84) C=C1C(=O)O[C@@H]2[C@H]1[C@H](O)C[C@]1(C)[C@@H](O)CC=C(C)[C@@H]21
  -5.5 | -0.5
85) CCOC(=O)C1C(=O)C=C(c2ccc3ccccc3c2)CC1c1ccc(C(F)(F)F)cc1 (stereo not given)
  -4.6 | /
86) COc1cc(C(F)(F)F)nc2ccc(C#CCOC(=O)Nc3ccccc3)cc12
  -0.7 | -0.4
87) C[C@@H]1CN([C@@H](C)CO)C(=O)c2cccc(NC(=O)Nc3ccc4c(c3)OCO4)c2O[C@H]1CN(C)S(=O)(=O)c1cccs1
  9.9 | /
88) CC1CCN(S(=O)(=O)c2ccc(C(=O)NC34CC5CC(CC(C5)C3)C4)cc2)CC1
  -0.4 | -0.1
89) CC(=O)Nc1cccc(-n2nnc(SCC(=O)c3ccccc3)n2)c1
  2.6 | /
90) COc1ccc(-n2nc3c(c2NC(C)=O)CS(=O)C3)cc1 (stereo not given)
  -5.2 | /

Gathered by group, the entries above containing an NH in an aromatic ring.
The line under a structure holds: BJeLR viab HTS | A1 inh
25) Cc1ccc(Cc2cc(C)n[nH]c2=O)cc1
  -1.1 | 1.9
36) Cn1c(=O)c2[nH]c(-c3ccc(Cl)cc3)c(O)c2n(C)c1=O
  1.5 | 0.4
67) CCOC(=O)c1ccc(N=Cc2c(O)[nH]c(=O)[nH]c2=O)cc1
  3.0 | 0.6

(cont.)
The line under a structure holds: BJeLR viab HTS | A1 inh
91) CCOC(=O)c1cc[nH]c1C
  -2.8 | 0.8
92) CNC[C@H]1Oc2ccc(NS(=O)(=O)c3ccc(C)cc3)cc2C(=O)N([C@@H](C)CO)C[C@H]1C
  -1.4 | 0.7
93) NC(=S)c1ccc(-c2cccs2)s1
  -3.5 | 0.0
94) O=C(Nc1ccc(F)cc1F)NC1CC(=O)N(Cc2ccccc2)C1 (stereo not given)
  -1.4 | -0.6
95) CC(C)NS(=O)(=O)c1ccc(N2C(=O)CC3(CCCC3)C2=O)c(Cl)c1
  0.5 | /
